High-throughput results: PubChem BioAssay, National Center for Advancing Translational Sciences (NCATS)
VACV mCherry inh: inhibitors of vaccinia virus infection (mCherry reporter signal); Vaccinia virus mCherry reporter infection, fluorescence; about a quarter of the inactives have no number; Potency, µM (doses to about 36.5 µM), for inactives: at the top dose activity change, negative = inhibition, actives largely listed as inhibitors; 310,000 compounds, 0.63% hits; active = well fitted inhibition curve with a large enough effect; inconclusive = small, poorly fitted or top-dose-only effect; inactive = no such curve, though single readings can be large or run the other way; tested in A549 cells; further: nearly all actives have a fitted effect of over 35% in size; inactives centre near -10
Vaccinia Venus: vaccinia inhibition (Venus reporter) | Vaccinia virus Venus reporter expression, fluorescence | Potency, µM (doses to about 36.5 µM), for inactives: top-dose activity change, negative = inhibition, hits mostly inhibitors | 330,000 compounds, 0.46% hits | AID 720580; active means well fitted inhibition curve with a large enough effect; inconclusive means small, poorly fitted or top-dose-only effect; inactive means no such curve, though single readings can be large or run the other way; tested in A549 cells; further: nearly all actives have a fitted effect of over 30% in size; inactives centre near -10
An asterisk follows results filed as active; i = inactive; ? = inconclusive; . = not tested or not shown; & = joins results of further samples; [ ] = dose if it differs, or a comment. On the % scale 0 is the no-effect control and ±100 the full control effect; potency means the concentration at half of the fitted maximal effect.

canonical_smiles	VACV mCherry inh	Vaccinia Venus
Cn1c(=O)c2cc(C(=O)Nc3cccc(C#N)c3)sc2c2ccccc21	-7%	4%
O=C(NC1C(=O)NNC1c1ccccc1)c1ccccc1 (configuration not stated)	.	-1%
Cc1nnc(NC(=O)C2CCN(C(=O)c3ccsc3)CC2)s1	-8%	-12%
COc1cccc(C(=Cc2ccc([N+](=O)[O-])cc2)C(=O)O)c1	-2%	2%
Cc1cc(C)c2c(=O)[nH]c(SCC(=O)N3CCCCC3)nc2n1	-10%	-5%
Cc1ccc(CNS(=O)(=O)c2cn(C)cn2)cc1	-12%	-7%
C#CCNC(=O)C1=C[C@H](c2csc3ccccc23)C[C@H](OCCCCO)O1	-20%	-24%
Cc1nc(C)c(C(=O)Nc2cccc(F)c2)s1	i	-7%
S=C(Nc1ccccc1)c1nc2ccccc2s1	-3%	-2%
Cc1cccc(NC(=O)Cn2cccc2)c1	-4%	0%
COc1ccccc1Cc1c(-c2ccc(F)cc2)nc2ccc(Cl)cn12	i	-12%
CC1(C)CC(=O)C2=C(C1)NC(=O)NC2c1ccc([N+](=O)[O-])cc1 (configuration not stated)	-19%	-3%
O=C(NCCN1CCC(n2c(=O)[nH]c3ccccc32)CC1)c1ccc(F)cc1F	-17%	-16%
CCc1ccc(N(C(=O)c2csnn2)C(C(=O)NCc2ccccc2)c2ccco2)cc1 (configuration not stated)	-30%	-25%
O=C(c1ccccc1Cl)N1CCC(c2nc3c(nnn3Cc3ccco3)c(=O)[nH]2)CC1	-18%	-11%
Cc1ccc2onc(CC(=O)N3CCN(c4cccc(C)c4C)CC3)c2c1	-6%	-9%
CC(NC(=O)c1ccccc1Cl)C(=O)O (configuration not stated)	i	-15%
Cc1ccc(Sc2ccc(N3CCCC(C(=O)Nc4ccc(F)cc4F)C3)nn2)cc1 (configuration not stated)	-6%	6%
CCOc1cccc(C(=O)NC(=S)Nc2ccc(Cl)cc2C(=O)O)c1	4%	-3%
O=c1oc(-c2ccccc2NS(=O)(=O)c2ccc(Cl)cc2)nc2ccccc12	-29%	-14%
CC(C)NC(=O)C1Cc2c(-c3ccccc3Oc3ccccc3)ccnc2O1 (configuration not stated)	-13%	-23%
CCCN1CCN(C(=O)Cn2c(=O)oc3cc(S(=O)(=O)NCc4ccccc4)ccc32)CC1	-11%	-7%
c1ccc2c(c1)cc1ccc3cccc4ccc2c1c34	-16%	-5%
CCOC(=O)[C@]12CCCC=C1N(CCc1ccc(OC)c(OC)c1)C(=O)[C@H](CC(=O)N1CCCCC1)C2	-10%	-4%
C=C(C)C1COc2cc3oc(=O)ccc3cc2O1 (configuration not stated)	i	-30%
FC(F)(F)c1ccccc1N/N=C/c1cccnc1	?	-4%
O=C(c1ccccc1)c1ccc(OCC(O)CN2CCCCC2)cc1 (configuration not stated)	-13%	-6%
CC1Cc2ccccc2N1C(=O)Cn1cc([N+](=O)[O-])cn1 (configuration not stated)	.	-14%
COc1ccc(-c2nc(CSCC(=O)NC3CCCc4ccccc43)c(C)o2)cc1OC (configuration not stated)	-7%	-22%
Clc1ccc(-c2cnc3n2CCCCC3)cc1	-7%	-16%
CCOc1ccc(-n2cc(-c3ccccc3)c3c(NC4CCCCC4)ncnc32)cc1	-21%	-18%
CC(=O)c1sc(-c2ccc(Cl)cc2)nc1C	i	-14%
S=c1[nH]nc(Cc2sc(-c3ccccc3)nc2-c2ccccc2)o1	.	-2%
COc1cc(NC(=S)Nc2ccccn2)cc(OC)c1OC	-5%	1%
CN(C)C(CNC(=O)c1ccc(C(=O)c2ccccc2)cc1)c1ccccc1 (configuration not stated)	i	-3%
COc1ccc(CNC(=O)c2ccc3nc(C(C)C)oc3c2)cc1OC	-21%	-26%
O=C(COC(=O)c1nc(Cl)ccc1Cl)Nc1ccccc1OC(F)F	-3%	-20%
Cc1ccc(-n2nc3c(=O)n(CC(=O)NCC(C)c4ccccc4)nc(C)c3c2C)cc1 (configuration not stated)	?	?
CCS(=O)(=O)c1ccc(O)c(NC(=O)c2cc(OC)c(OC)c(OC)c2)c1	i	-12%
CN(CCCC1CCCC1)C(=O)c1cc(COc2c(F)cccc2F)on1	i	-13%
O=C(Cc1ccc([N+](=O)[O-])cc1)NCc1ccccc1Cl	i	-1%
CCCS(=O)(=O)NC(=O)C1(C)CCN(C(=O)c2ccc(F)cc2Cl)C1 (configuration not stated)	4%	7%
Cc1cccc(N2CCN(c3ncnc4onc(C)c34)CC2C)c1 (configuration not stated)	-10%[7.34 µM]	-13%[7.34 µM]
O=C1CCCN1C(=O)CSc1ccc2ccccc2n1	-15%	-12%
COC(=O)Cn1cc(C=C2C(=O)NC(=O)NC2=O)c2ccccc21	-12%	5%
CCOc1ccc(NC(=O)c2ccc(-c3nc(COc4ccccc4)c(C)o3)cc2)cc1	-7%	0%
O=C(NC(c1ccc(Cl)cc1)c1cnccn1)C1CCN(CCCOc2ccccc2)CC1 (configuration not stated)	-10%	-4%
Fc1ccc(NC(=S)NCc2ccccn2)cc1	.	3%
CC(C)(C)C(=O)CSc1ncnc2c1cnn2Cc1ccccc1	-6%	-10%
Cc1cc(C)cc(OCC(=O)N(C)CC(=O)Nc2ccc(N3CCOCC3)cc2)c1	-9%	-2%
O=C(c1ccc[nH]1)N1O[C@@H]2C=C[C@H]1C2	i	0%
O=C(CCn1nnc2ccccc21)Nc1nnc(Cc2ccccc2)s1	i	-4%
O=C(c1ccc(C(F)(F)F)cc1)C1CCCN(C(=O)CN2CCCC2=O)C1 (configuration not stated)	4%	-4%
COCCCNC(=O)CSc1nc2ccccc2c(=O)n1CCCC(=O)NCC1CCCO1 (configuration not stated)	-11%	-1%
CC(C)(C)c1ccc(C(=O)Nc2ccc(S(=O)(=O)Nc3cnc4ccccc4n3)cc2)cc1	-6%	-2%
c1ccc(-c2c(-c3ccccc3)n(Cc3ccco3)c3ncnc(NCCCn4ccnc4)c23)cc1	?	13µM*
Cc1ccc(C)c(N2CC(=O)N(c3cc(C)ccc3C)CC2=O)c1	-16%	-13%
O=C(CCCOc1ccccc1)N1CCN(S(=O)(=O)c2ccc(Cl)cc2)CC1	-11%	-3%
CCOC(=O)c1ccccc1NC(=O)CN1CCCN(Cc2cccc(Cl)c2)S1(=O)=O	-5%	-11%
NCC1O[C@H](O[C@@H]2C(O)[C@H](O[C@H]3OC(CO)C(O)C(N)C3O)[C@@H](N)C[C@H]2N)[C@@H](N)CC1O (some centres not stated)	i	?

Carrying on.
canonical_smiles	VACV mCherry inh	Vaccinia Venus
COc1ccc(CCC(=O)Nc2cc(Cl)ccc2OC)cc1	i	-24%
CCC(C(=O)NC1CCCCC1)N(CC1CCCO1)C(=O)CNS(=O)(=O)c1ccc(OC)cc1 (configuration not stated)	.	-12%
CNC(=O)c1ccc(NC(=O)CC23CC4CC(CC(C4)C2)C3)cc1	-15%	-18%
CN(CC(=O)Nc1ccccc1C(F)(F)F)C(=O)CCc1nc2sc3c(c2c(=O)[nH]1)CCCC3	-11%	-7%
CCOC(=O)c1ccc(N=c2sc(C(=O)OC)cc(=O)n2Cc2ccc3c(c2)OCO3)cc1	-23%	-6%
CCOc1ccc(NC(=O)COC(=O)c2cc([N+](=O)[O-])ccc2N2CCOCC2)cc1	-1%	-5%
COC(=O)c1sccc1NC(=S)N1CC(C)CC(C)C1 (configuration not stated)	-12%	-10%
CCOc1ccc(N(CC)C(=O)CCS(=O)(=O)c2cccc3nonc23)cc1	i	-8%
CCc1cccc(C)c1NC(=O)CC(C)(C)CC(=O)O	-8%	-10%
COc1ccc(NC(=O)COC(=O)CNC(=O)c2cc(OC)c(OC)c(OC)c2)cc1	i	-3%
CCOc1ccc(Nc2cc(=O)oc3ccccc23)cc1	-27%	-23%
Nc1cc(N)nc(SCC(=O)N2CCN(S(=O)(=O)c3ccccc3)CC2)n1	-10%	-9%
COc1cc(O)c(C(CC(=O)N2CCCCC2)c2ccc3c(c2)OCO3)c(OC)c1 (configuration not stated)	i	-1%
CCN(CC(=O)NCc1cccs1)S(=O)(=O)c1ccc(C(C)C)cc1	.	-26%
COc1ccc(-c2nnn(-c3cc(Cl)cc(Cl)c3)c2N)cc1	-13%	-14%
O=c1c(O)c(-c2cc(O)c(O)c(O)c2)oc2cc(O)cc(O)c12	-11%&-1%&-8%&-9%	-14%&-9%&-13%&-9%
O=C(C[n+]1cccc(Br)c1)c1cccs1	54%[activator]	10%
Cc1ccccc1-c1nc(NC(C)C)nc2cc(-c3ccccc3)sc12	i	11%
COc1ccc(C(O)c2ncc(-c3ccccc3)[nH]2)cc1F (configuration not stated)	7%	-8%
COC(=O)c1c(-c2c(Cl)cccc2Cl)noc1C(=O)NN	-6%	-19%

Full records, quoted from the list. Values in the order: VACV mCherry inh | Vaccinia Venus
Entry for COC(=O)c1c(-c2c(Cl)cccc2Cl)noc1C(=O)NN → -6% | -19%
Entry for Cc1ccc(C)c(N2CC(=O)N(c3cc(C)ccc3C)CC2=O)c1 → -16% | -13%

Returning to the listing; the seven compounds before the break are reprinted first.
canonical_smiles	VACV mCherry inh	Vaccinia Venus
CCN(CC(=O)NCc1cccs1)S(=O)(=O)c1ccc(C(C)C)cc1	.	-26%
COc1ccc(-c2nnn(-c3cc(Cl)cc(Cl)c3)c2N)cc1	-13%	-14%
O=c1c(O)c(-c2cc(O)c(O)c(O)c2)oc2cc(O)cc(O)c12	-11%&-1%&-8%&-9%	-14%&-9%&-13%&-9%
O=C(C[n+]1cccc(Br)c1)c1cccs1	54%[activator]	10%
Cc1ccccc1-c1nc(NC(C)C)nc2cc(-c3ccccc3)sc12	i	11%
COc1ccc(C(O)c2ncc(-c3ccccc3)[nH]2)cc1F (configuration not stated)	7%	-8%
COC(=O)c1c(-c2c(Cl)cccc2Cl)noc1C(=O)NN	-6%	-19%
Cc1cc(C)c2c(-n3cccc3)nn(C)c2n1	.	-11%
COc1ccc(CCN2CNc3c(c(=O)n(C)c(=O)n3C)C2)cc1OC	-14%	-11%
O=C(/C=C/c1ccccc1)NCCc1nc2ccccc2[nH]1	-3%	-1%
Cc1occc1C(=O)NNC(=O)c1ccccc1[N+](=O)[O-]	i	-17%
CCCCn1c(N)c(N(CC)C(=O)c2cc3c(s2)CCCCC3)c(=O)[nH]c1=O	-7%	-8%
Cc1ccnc(N2C(=O)c3ccccc3C2O)c1 (configuration not stated)	6%	-4%
Cc1c(CN(C)C(=O)c2nn(C)cc2[N+](=O)[O-])cnn1C	-12%	-5%
Cc1cccc2sc(N(CCN(C)C)C(=O)c3ccc4c(c3)OCCO4)nc12	-2%[7.34 µM]	-5%[7.34 µM]
COC(=O)CC1Oc2ccc(Cl)cc2-n2cc(-c3ccccc3)nc21 (configuration not stated)	i	-8%
CCOC(=O)N1CCN(C(=O)Nc2ccc3nc(-c4ccccn4)c(-c4ccccn4)nc3c2)CC1	.	-15%
N/C(Cc1ccc(Cl)cc1Cl)=N\OC(=O)Cc1ccc(Cl)cc1	-16%	-5%
Cc1ccc(S(=O)(=O)Cc2ccc(C(=O)N3CCN(c4ccc(F)cc4)CC3)o2)cc1	-7%	-16%
Cc1cc(SCC(=O)OC(C)C(=O)N(C)c2ccccc2)nc2ccccc12 (configuration not stated)	i	-11%
CCOc1ccc(CN2CCC(n3nccc3NC(=O)c3ccccc3OC)CC2)cc1	i	-24%
COc1ccc(NC(=S)Nc2ccc(OC(F)F)cc2)cn1	-9%	-7%
Cc1ccc(NC(=O)Cn2cnc3c(cnn3C(C)(C)C)c2=O)cc1	-2%[1.46 µM]	-18%
Cc1ccc(-c2cn3c(n2)sc2cc(C(=O)NCCCN4CCCCCC4)ccc23)cc1	?	?
CCOC(=O)[C@H]1[C@H]2COc3ccc(C)cc3[C@@H]2N2C(=O)c3ccc(F)cc3NC(=O)[C@@]12C	0%	-11%
COc1ccc(C(=O)NC2CCN(C(=O)NCc3ccccc3)CC2)cc1	i	-5%
COc1ccc(N2Cc3cccc(C(=O)Nc4cc(C)cc(C)c4)c3C2=O)cc1	-5%	-1%
COC(=O)c1ccc(C)c(NC(=O)Cc2coc3cc(OC)ccc23)c1	-11%	-15%
CCc1ccc2c(c1)C(c1ccc([N+](=O)[O-])cc1)=NNC(c1ccccc1)=N2	i	-6%
O=C(NC1CCCC1)C(c1cccs1)N(C(=O)c1ccco1)c1ccc2c(c1)OCO2 (configuration not stated)	-9%	-6%
O=S(=O)(Nc1ccc(C(O)(C(F)(F)F)C(F)(F)F)cc1)c1cccc2ccccc12	10%	-24%
